Compound activity from PubChem BioAssay.
Rce1 inh = yeast Ras-converting enzyme inhibition; Q03530; yeast membranes, quenched prenylated peptide cleavage fluorescence; calls only; actives 0.27% (n = 290,000);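 active means fall in fluorescence gain of 50% or more versus controls, with final raw signal at or below 3038400; inconclusive means same 50% fall but final raw signal above 3038400; inactive means fall in fluorescence gain under 50%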;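 further: plate controls were neutral control wells for no effect and wells lacking membranes for full effect; tested at 10 µM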
Target sequence (Q03530 whole entry, looked up): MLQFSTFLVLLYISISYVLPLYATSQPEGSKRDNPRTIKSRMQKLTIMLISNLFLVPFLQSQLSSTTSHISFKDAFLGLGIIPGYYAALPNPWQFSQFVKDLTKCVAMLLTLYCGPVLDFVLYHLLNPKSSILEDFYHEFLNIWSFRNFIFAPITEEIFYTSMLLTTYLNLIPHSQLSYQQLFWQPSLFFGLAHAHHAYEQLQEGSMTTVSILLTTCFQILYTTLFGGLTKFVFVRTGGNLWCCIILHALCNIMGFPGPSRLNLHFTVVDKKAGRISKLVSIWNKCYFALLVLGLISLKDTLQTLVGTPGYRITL
CSC inhib = blocks cancer stem cells; inhibition, % at 7.5 µM; AID 2717; cancer stem cell-like cells viability, luminescence; actives 1.1% (n = 300,000);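 active means mean at 75% or more and at least half the replicates too; inconclusive means mean and replicates disagree; tested in HMLE shEcad cells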;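 further: 0% = median of negative and 100% = median of positive control wells; the first replicate is given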
PABP polyA inh = PABP-poly(A) binding inhibition. P11940. PABP-poly(A) RNA binding, fluorescence polarization. inhibition, % at 35 µM. actives 1% (n = 290,000). AID 2014;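 active means 50% or more with normal probe brightness, or confirmed in later tests; inconclusive means above 50% with abnormal brightness, or retests that disagree; inactive means below 50% or failed in later tests; about a fifth of its hits are not listed in these tables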;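 further: calls also rest on retests at 20 µM and on dose response follow-up; controls were probe without protein and protein plus probe with vehicle; some compounds called inactive have numbers as strong as hits; many hits fall short of the cut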
eIF4H FP inh = inhibitors of RNA binding by human eIF4H. Q15056. eIF4H fluorescence polarization binding assay. inhibition, % at 35 µM. actives 0.94% (n = 290,000);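 active means 50% or more with normal probe brightness, or confirmed in later tests; inconclusive means above 50% with abnormal brightness, or retests that disagree; inactive means below 50% or failed in later tests; about a fifth of its hits are not listed in these tables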;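 further: calls also rest on retests at 20 µM and on dose response follow-up; 0% = protein and probe with vehicle and 100% = probe without protein; strong numbers were not always called active; many hits fall short of the cut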
Yeast UUG start = modulators of start codon recognition fidelity in yeast. S. cerevisiae UUG-firefly luciferase reporter, luminescence/redox ratio. activity score, % at 18.7 µM. actives 0.13% (n = 350,000). AID 602363;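 active means replicate mean at a twofold rise or more, about +100% in these data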;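 further: firefly luciferase made from a UUG start codon reports start codon fidelity; reporter light over untreated wells divided by growth signal over untreated wells; some hits fall short of that in this replicate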
HIV Env fusion = blocks HIV Env-driven cell-cell fusion. HeLa-JRFL Env/CEM21 cell fusion, luciferase. inhibition, % at 12.3 µM. actives 1.1% (n = 360,000). AID 651610;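 active means mean replicate inhibition score of at least 50 and every replicate individually at or above 50; inconclusive means only one of the two criteria met; inactive means mean below 50 and not all replicates reaching 50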;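 further: 0% = plate neutral controls and 100% = maraviroc near 300 nM; one replicate is shown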
MT1-MMP act inh = blocks activation of human MT1-MMP; P50281; HT1080 RFP-PRO-GFP cells, GFP/RFP ratio fluorescence, overnight; percent of plate control window, DMSO zero; GFP/RFP ratio change, % at 20 µM; actives 0.061% (n = 360,000); AID 651647;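 active means GFP/RFP ratio change of at least 30% with cell ATP level not reduced by more than half and red fluorescence within 50% of control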; further: strong numbers were not always called active
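system = RFP-PRO-GFP reporter HT1080 cells | dosing = 20 µM single dose, 1% DMSO | timing = overnight cell settling, then overnight compound exposure, 37 °C, 5% CO2 | read-out basis = GFP/RFP fluorescence ratio | controls = DMSO and RFP-L50D-GFP cell wells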
eIF4H FP inh retest = also measured in eIF4H FP inh; calls as there; inhibition, %; compound at 20 µM; confirmation average;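 mean of two retest wells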
PABP polyA inh retest = second read-out of PABP polyA inh, no call of its own (marks repeat the call); inhibition, %; compound at 20 µM; confirmation repeats;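 mean of two retest wells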
MT1-MMP act inh RFP = recorded beside MT1-MMP act inh, whose call it bears; RFP signal change, %; measured here: RFP expression control read;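 0 = vehicle wells; hits needed this value within 50% of zero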
* marks the source's active call; other numbers are inactive results; i = inactive; ? = inconclusive; / = no result given. The list is partial (hit frequency here may not be typical).

SMILES	Rce1 inh	CSC inhib	PABP polyA inh	eIF4H FP inh	Yeast UUG start	HIV Env fusion	MT1-MMP act inh	MT1-MMP act inh RFP	others
CCN(CC(=O)NCc1cccs1)C(=O)CCCOc1ccc(C(C)(C)C)cc1	/	/	/	/	-6	13	4	-11
CCOC(=O)C(Cc1ccccc1)NC(=O)CNC(=O)CNC(=O)OCc1ccccc1 (stereo unspecified)	i	6	-2	0	/	9	-2	2
Cc1ccc(-c2cc(C(=O)N/N=C/c3ccco3)[nH]n2)cc1	i	23	-2	1	-16	/	1	1
Cc1ccc(NS(=O)(=O)c2cc3[nH]c(=O)c(=O)[nH]c3cc2C)c(C)c1	i	/	5	-10	-1	20	0	4
Cc1ccc(-c2nc3ncccc3o2)cc1NC(=O)c1ccc2c(c1)OCO2	/	/	/	/	-12	5	-1	3
COc1cc(-c2nc(C(F)(F)F)c(OC)o2)cc(OC)c1OC	i	-6	6	3	-16	12	2	4
Cn1c(C(=O)N2CCCC(C(=O)NCCN3CCOCC3)C2)cc2sccc21 (stereo unspecified)	i	3	-7	1	-10	/	0	0
COc1ccc(-n2nc(C(=O)NCC(=O)N3CC(C)CC(C)C3)c3ccccc3c2=O)c(OC)c1 (stereo unspecified)	i	/	6	9	2	1	0	0
CC(Sc1nnc2c(n1)C1(C)CCC2C1(C)C)C(=O)Nc1ccccc1 (stereo unspecified)	i	-18	19	16	-9	47	6	1
C/C(=N\OCc1ccc(C#N)cc1)c1ccccc1	i	1	-15	-9	/	-85	1	7
O=C(O)c1ccc(CS(=O)(=O)c2ccc(Br)cc2)cc1	i	-5	8	-11	5	14	2	4
Cc1ccc(-c2nc3cccnc3s2)cc1NS(=O)(=O)c1ccc2c(c1)CCCC2	i	40	10	7	-10	31	-1	-3
CCOC(=O)c1c(CC(C)C)csc1/N=C/C1C(=O)CCCC1=O	i	-9	-6	?	/	4	-7	7
CC(=O)Nc1ccc(N=Nc2ccccc2)cc1[N+](=O)[O-]	/	/	/	/	-32	-10	5	0
O=C(COC(=O)c1ccc(S(=O)(=O)N2CCCCC2)cc1)NCc1ccco1	i	6	-4	60	-3	-3	3	8	eIF4H FP inh retest=32;PABP polyA inh retest=42
CN(C)CCC(=O)c1ccc(Cl)cc1	i	28	-2	-3	-16	/	-1	7
Cc1nn(CC(=O)Nc2ccc3c(c2)OCCO3)c(C)c1[N+](=O)[O-]	/	12	/	/	-7	6	4	3
CC(C)N(CCn1c(=S)[nH]c2ccccc2c1=O)C(C)C	i	2	-7	5	-14	/	-4	1
CSc1nc(N2CCOCC2)c2sccc2n1	i	-2	-4	-8	/	21	-7	0
Cc1ccccc1-c1nnc(SCC(=O)N2CCCC2)o1	i	-4	4	-3	-3	-15	-3	-2
Cc1ccc2c(c1)/C(=N/N1C(=O)c3ccccc3C1=O)C(=O)N2	i	-9	6	-4	/	/	-4	3
Cn1c(=O)c2cc(NC(=O)Cc3cccnc3)ccc2n1-c1ccc2ccccc2c1	/	/	/	/	-21	-87	-1	-3
Cc1csc(Nc2cccc3ccccc23)n1	i	-12	8	6	/	0	5	1
O=C1C2C(c3ccccc3)C=CC(c3ccccc3)C2C(=O)N1CCCO (stereo unspecified)	i	-1	11	-1	8	/	5	5
C=C(C)c1cccc(C(C)(C)NC(=O)N2CCN(c3ncccn3)CC2)c1	i	-12	/	/	-1	/	0	2
Cn1c(=O)c(=O)n(C)c2cc(S(=O)(=O)N3CCCC3C(=O)NCc3ccco3)ccc21 (stereo unspecified)	i	-2	-7	-5	0	-8	-5	-2
CCN1CCN(C(=O)Cn2ncc3c2-c2ccccc2OC3)CC1	i	-8	12	-1	-14	-33	3	2
O=C(O)Cc1ccc(NC(=O)COc2ccc3ccccc3c2)cc1	i	/	-7	4	-1	0	0	5
CCN1C(=O)C(=O)N(Cc2ccc(OC)c(F)c2)C1=O	i	-6	2	7	-6	0	-1	0
CCC1(C)Cc2c(C#N)c(SC)nc(N3CCOCC3)c2CO1 (stereo unspecified)	i	-15	/	/	-12	14	1	3
Cc1cc(C(C)(C)C)oc1C(=O)NCCCNC(=O)c1oc(C(C)(C)C)cc1C	i	-11	-15	-7	2	/	2	2
Cc1cc(C)n2nc(SCC(=O)N(CCC#N)c3ccccc3F)nc2n1	/	-8	/	/	-6	-50	-3	-1
COc1c(F)c(F)c(C(=O)Nc2ccc(N3CCN(C(C)=O)CC3)c(Cl)c2)c(F)c1F	i	/	0	2	-7	23	9	-10
COc1ccc(C(=O)O)cc1S(=O)(=O)Nc1ccccc1-c1ccccc1	/	-2	11	1	-24	2	-2	-1
CCOC(=O)C1(C)CCCN1C(=O)c1ccc2ccccc2c1 (stereo unspecified)	/	/	/	/	-9	-6	2	2
O=C1c2cccnc2C(Nc2ccc(S(=O)(=O)N3CCCCCC3)cc2)N1Cc1ccccc1 (stereo unspecified)	i	/	-13	0	-3	76*	3	2
CC1(C)CC(NC(=O)C(C)(C)Oc2ccc(Cl)cc2)CC(C)(C)N1	i	-16	-4	-17	0	4	-3	-3
N#CC1=C(N)Oc2c(oc(CO)cc2=O)C1c1ccsc1 (stereo unspecified)	i	-22	34	23	-13	-43	-23	7
COCCNc1oc(/C=C/c2cccc(OC)c2)nc1S(=O)(=O)c1ccccc1	/	/	/	/	-24	20	-6	3
COc1ccc(NC(=O)c2cnn(-c3ccccc3)c2C)c(OC)c1	i	-6	3	0	-7	-15	0	-5
Cc1cc(C)cc(N=Cc2ccc([N+](=O)[O-])s2)c1	i	5	-5	-8	/	-8	0	-2
CCOC(=O)C1CC2=C(CC(C)(C)CC2=O)N(CCOC)C1=O (stereo unspecified)	/	/	/	/	-12	-131	1	5
CC(C)CC(=O)Nc1nnc(SCC(=O)Nc2ccc3c(c2)OCO3)s1	i	-2	0	-6	-8	8	0	-2
O=C1COc2ccc(C(=O)CSc3ccc(Br)cc3)cc2N1	/	5	/	/	-7	/	-1	-12
Cn1c(N)c(C(=O)CN2CCN(S(=O)(=O)c3ccccc3C#N)CC2)c(=O)n(C)c1=O	/	/	/	/	-9	-3	3	4

Part of the list above in order of formula weight, falling:
SMILES	Rce1 inh	CSC inhib	PABP polyA inh	eIF4H FP inh	Yeast UUG start	HIV Env fusion	MT1-MMP act inh	MT1-MMP act inh RFP	others
O=C1c2cccnc2C(Nc2ccc(S(=O)(=O)N3CCCCCC3)cc2)N1Cc1ccccc1 (stereo unspecified)	i	/	-13	0	-3	76*	3	2
COc1c(F)c(F)c(C(=O)Nc2ccc(N3CCN(C(C)=O)CC3)c(Cl)c2)c(F)c1F	i	/	0	2	-7	23	9	-10
Cn1c(N)c(C(=O)CN2CCN(S(=O)(=O)c3ccccc3C#N)CC2)c(=O)n(C)c1=O	/	/	/	/	-9	-3	3	4
COCCNc1oc(/C=C/c2cccc(OC)c2)nc1S(=O)(=O)c1ccccc1	/	/	/	/	-24	20	-6	3
Cc1cc(C(C)(C)C)oc1C(=O)NCCCNC(=O)c1oc(C(C)(C)C)cc1C	i	-11	-15	-7	2	/	2	2
Cc1cc(C)n2nc(SCC(=O)N(CCC#N)c3ccccc3F)nc2n1	/	-8	/	/	-6	-50	-3	-1
COc1ccc(C(=O)O)cc1S(=O)(=O)Nc1ccccc1-c1ccccc1	/	-2	11	1	-24	2	-2	-1
O=C1COc2ccc(C(=O)CSc3ccc(Br)cc3)cc2N1	/	5	/	/	-7	/	-1	-12
CC1(C)CC(NC(=O)C(C)(C)Oc2ccc(Cl)cc2)CC(C)(C)N1	i	-16	-4	-17	0	4	-3	-3
CCC1(C)Cc2c(C#N)c(SC)nc(N3CCOCC3)c2CO1 (stereo unspecified)	i	-15	/	/	-12	14	1	3
CCOC(=O)C1(C)CCCN1C(=O)c1ccc2ccccc2c1 (stereo unspecified)	/	/	/	/	-9	-6	2	2
N#CC1=C(N)Oc2c(oc(CO)cc2=O)C1c1ccsc1 (stereo unspecified)	i	-22	34	23	-13	-43	-23	7
Cc1cc(C)cc(N=Cc2ccc([N+](=O)[O-])s2)c1	i	5	-5	-8	/	-8	0	-2

Next part.
SMILES	Rce1 inh	CSC inhib	PABP polyA inh	eIF4H FP inh	Yeast UUG start	HIV Env fusion	MT1-MMP act inh	MT1-MMP act inh RFP	others
Oc1cccc(Nc2c3ccccc3nc3ccccc23)c1	i	56	?	?	-2	-27	-11	-11
Cc1onc(-c2ccccc2)c1-c1n[nH]c(=S)n1-c1ccccc1	/	/	/	/	-8	-60	1	5
O=C(Nc1ccccc1Cl)c1cc(C2CCCN(C(=O)OCCF)C2)on1 (stereo unspecified)	/	/	/	/	11	-3	0	0
Cc1cc(CNC(=O)c2cc(Br)ccc2Cl)nn1C	i	-2	-3	-10	-17	-52	3	-3
COc1ccc2c(CC(=O)Nc3ccccc3N3CCOCC3)coc2c1	i	-16	1	2	-15	13	-1	-3
O=C(Cn1c(C(=O)N2CCc3ccccc3C2)cc2sccc21)c1ccccc1	i	8	-4	-8	-7	/	-10	-17
O=C1Cc2cc(S(=O)(=O)Nc3ccccc3Cl)cc3c2N1CCC3	i	-10	/	/	15	-2	0	2
CN(C)c1ccc(C(=O)NCC(c2cccs2)N2CCOCC2)cc1 (stereo unspecified)	/	12	/	/	-7	/	6	3
CCN(CC)c1ncnc2c1ncn2[C@H]1CN(Cc2ccc(Cl)cc2)C[C@@H](CO)O1	/	/	/	/	5	14	-3	5
CC(O)C(NS(=O)(=O)c1ccc(Cl)cc1)C(=O)OCCOc1ccc(F)cc1 (stereo unspecified)	/	/	/	/	2	9	-2	-15
CCCCn1c(SCC(=O)N2CCCC2)nnc1-c1ccccc1	i	-5	5	-4	8	13	1	2
CCOC(=O)N1CCN(S(=O)(=O)N2CCCC(C(=O)NCCCN3CCCCC3CC)C2)CC1 (stereo unspecified)	i	-11	/	/	13	-2	0	8
Cc1nnc(NC2CCCCC2)[nH]c1=O	i	-13	-8	0	-10	-7	2	3
COc1ccccc1N1CCN(C(=O)CSc2nnc3c4ccccc4nc(Cc4ccccc4)n23)CC1	i	13	5	1	/	/	/	/
C/C(CC(=O)Nc1cccc(Cl)c1Cl)=N\NC(=O)c1ccccc1N	/	-16	-5	2	/	-3	3	2
O=C(c1cn(-c2ccccc2)nc1-c1ccc(Cl)s1)N1CCOCC1	i	0	-1	3	12	11	-13	-14
Cc1ccc(NC(=O)C2CCCN(C(=O)c3ccc(Cl)cc3)C2)cc1S(=O)(=O)N1CCOCC1 (stereo unspecified)	i	-11	-7	2	6	38	2	-26
COc1ccc(Cl)cc1NC(=O)NNC(=O)c1ccccn1	i	12	-11	6	-13	-24	2	3
CN(CCc1ccccc1)C(=O)CCc1nnc(Cc2ccc3c(c2)OCO3)o1	i	-6	6	-1	-10	6	0	0
COC(=O)c1ccc(/C=C/c2c(-c3ccsc3)sc3ccccc23)cc1	i	94*	-6	-4	-11	53	6	5
COCCn1c(SCC(=O)Nc2ccc(C(N)=O)cc2)nc2c([nH]c3ccccc32)c1=O	i	-15	-13	-10	-14	7	5	2
COc1ccc2cc(C(=O)CS(=O)(=O)c3ccccc3)c(=O)oc2c1	i	13	0	0	-17	-20	2	1
O=C(NNS(=O)(=O)c1ccccc1[N+](=O)[O-])c1ccc(O)cc1	i	-1	-2	4	-13	6	1	2
